Screens as filed in PubChem.
RE007 growth inh – qHTS Assay for Inhibitors of the HIV-1 protein Vpr | 360,000 tested, 0.21% active | S. pombe RE007 Vpr strain, BacTiter-Glo ATP luminescence, 24 h; control for the full effect not named in the record | Potency, µM (top dose mostly 92.2 µM), without a hit: at the highest dose activity change, negative = less growth | AID 651644, 2012; active = well fitted falling curve with a large enough effect; inconclusive = small, poorly fitted or top-dose-only effect; inactive = no such curve, though single readings can be large or run the other way;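 note: nearly all actives have a fitted effect of over 50% in size; the assay follows cell death caused by Vpr and the record does not say whether a fall means rescue or toxicity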
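Fission yeast RE007 carrying one integrated HIV-1 vpr copy, seeded at OD 0.01 in PMG+AL medium with 23 nL pinned compound. Grown 24 h at 30 degrees; viability read by BacTiter-Glo luminescence after 5 min.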
StopGo reporter – High Throughput Screening for Foot and Mouth Disease Virus Antivirals | 410,000 tested, 1.2% active | Potency, µM (highest dose often 57.9 µM), inactives show top-dose signal change, negative = less light | human cells with a luciferase reporter of 2A StopGo recoding; control for the full effect not named in the record | AID 1159524, 2015; active = well fitted falling curve with a large enough effect; inconclusive = small, poorly fitted or top-dose-only effect; inactive = no such curve, though single readings can be large or run the other way; tested in HEK293T cells; note: nearly all actives have a fitted effect of over 45% in size; luciferase light after 4 h
An asterisk follows results filed as active; [ ] = dose if it differs, or a comment. % is set by controls: 0 for no effect and ±100 for the full control effect; potency is the fitted concentration of half-maximal effect. Not all compounds are listed, so the mix of outcomes need not match the whole.

What do the screens show for `Cc1cc(-c2ccc(Br)cc2)n2nc(C)cc2n1`?
RE007 growth inh: -10%; StopGo reporter: -15%

What do the screens show for `CCNC(=S)Nc1ccc2c(c1)c(=O)n(C)n2Cc1ccc(Cl)cc1`?
RE007 growth inh: 0%[18.4 µM]; StopGo reporter: 0%

Results for Fc1ccc(-c2nc3ccc(Cl)cn3c2Cc2ccccc2)cc1 ?
RE007 growth inh: 2%; StopGo reporter: 0%

What do the screens show for `CCOC(=O)C1c2cccc(O)c2CCN1C(C)=O` (stereo not drawn)?
RE007 growth inh: -30%; StopGo reporter: -12%

What do the screens show for `CO[C@@H]1CN(C)C(=O)c2ccc(NC(=O)c3ccccc3F)cc2OC[C@@H](C)N(CC2CCOCC2)C[C@@H]1C`?
RE007 growth inh: 8%; StopGo reporter: -10%

What do the screens show for `NC(=S)NN=Cc1nccc2c(C(F)(F)F)cccc12`?
RE007 growth inh: -9%; StopGo reporter: -11%

How did CC(C)NC(=O)C1(C)CN(S(C)(=O)=O)CC(=O)N1CCc1ccccc1 (stereo not drawn) do in these assays?
RE007 growth inh: -11%; StopGo reporter: -22%

What do the screens show for `CC(C)C[C@H]1C(=O)N2CCC[C@H]2[C@]2(O)O[C@](NC(=O)[C@@H]3C=C4c5cccc6[nH]cc(c56)C[C@H]4N(C)C3)(C(C)C)C(=O)N12`?
RE007 growth inh: 2%; StopGo reporter: -19%

What do the screens show for `CC(=O)NCC1=C(c2ccc3ccccc3c2)C[C@@H]2CC[C@H]1N2Cc1ccco1`?
RE007 growth inh: -7%; StopGo reporter: -21%

Results for CC(C)N=C1CCCC1C(=S)SSC(=S)C1CCCC1=NC(C)C (stereo not drawn) ?
RE007 growth inh: 18%; StopGo reporter: inconclusive

How did CCNC(=O)c1cc2c(c(-c3cccc(-c4cc5ccccc5o4)c3)n1)[C@H](CCO)N(C(=O)NC(C)C)C2 do in these assays?
RE007 growth inh: -5%; StopGo reporter: inconclusive

How did COc1ccc(C(Cl)=C(C=O)c2ccc(OC)c(OC)c2)cc1OC do in these assays?
RE007 growth inh: 8%[18.4 µM]; StopGo reporter: 11%

Results for CC1CCCC(C)N1C(=O)COC(=O)c1ccccc1C(=O)c1ccccc1 (stereo not drawn) ?
RE007 growth inh: -6%; StopGo reporter: -9%

Results for O=C(CC[C@H]1O[C@@H](n2ccc(=O)[nH]c2=O)[C@H](O)[C@@H]1O)NCCN1CCOCC1 ?
RE007 growth inh: 5%; StopGo reporter: -7%

How did COc1cc(CNc2ncnc3c2ncn3[C@H]2CN(Cc3cccc(C(F)(F)F)c3)C[C@@H](COC(C)=O)O2)cc(OC)c1OC do in these assays?
RE007 growth inh: 1%; StopGo reporter: -20%

How did COC(=O)/C(=C\c1c(OC)cc(OC)cc1OC)C(=O)c1ccc2c(c1)OCO2 do in these assays?
RE007 growth inh: 5%; StopGo reporter: 5%

Results for COc1ccc(CSc2n[nH]c(=O)[nH]c2=O)cc1 ?
RE007 growth inh: -22%; StopGo reporter: -11%

What do the screens show for `COC(=O)C1(C)COP(=O)(Nc2ccc(OC)cc2)OC1` (stereo not drawn)?
RE007 growth inh: 3%[18.4 µM]; StopGo reporter: -22%

What do the screens show for `O=C(Nc1cccc(S(=O)(=O)C(F)(F)F)c1)[C@H]1C[C@H](O)[C@@H](CO)O1`?
RE007 growth inh: 8%[18.4 µM]; StopGo reporter: -5%

How did C[C@@H]1NS(=O)(=O)c2cc(Cl)ccc2O[C@@H]1c1ccccc1 do in these assays?
RE007 growth inh: 9%; StopGo reporter: 8%

How did COc1cccc(CN2CCC2(C)C(=O)NCc2cccc(C(F)(F)F)c2)c1OC (stereo not drawn) do in these assays?
RE007 growth inh: -4%; StopGo reporter: -26%

How did COC(=O)C1=CN(c2ccc(OC)cc2OC)C(N)=C(C#N)C1c1cccc([N+](=O)[O-])c1 (stereo not drawn) do in these assays?
RE007 growth inh: -11%; StopGo reporter: -6%

How did O=C(C(=O)N1CCN(c2ccncc2)CC1)c1cccc(Br)c1 do in these assays?
RE007 growth inh: inconclusive; StopGo reporter: -21%

What do the screens show for `COc1cccc(-c2ccc3c(c2)N(Cc2ccccc2OC)C(=O)C(C)S3)c1` (stereo not drawn)?
RE007 growth inh: 16%; StopGo reporter: inconclusive

Results for NC1=NC[C@H](c2ccccc2)N1CC1CCCCC1 ?
RE007 growth inh: 1%; StopGo reporter: -19%

How did C[C@@H]1CN([C@@H](C)CO)C(=O)CCCn2nncc2CO[C@@H]1CN(C)S(C)(=O)=O do in these assays?
RE007 growth inh: 9%; StopGo reporter: -2%

What do the screens show for `OC[C@@H](O)[C@@H](O)[C@H](O)[C@H](O)CO`?
RE007 growth inh: -9%[18.4 µM]; StopGo reporter: -16%

How did CC(=O)N1CCN(C(=O)CCCNC(=O)c2ccc(Cl)cc2)CC1 do in these assays?
RE007 growth inh: 10%; StopGo reporter: -3%

How did N#CCOc1ccccc1CNC[C@H]1O[C@@H](n2cnc(C(N)=O)n2)[C@H](O)[C@@H]1O do in these assays?
RE007 growth inh: -9%; StopGo reporter: -18%

How did Cc1cccc(S(=O)(=O)NC(=O)C2(C)CCN2C(=O)Cc2ccc(C(C)(C)C)cc2)c1 (stereo not drawn) do in these assays?
RE007 growth inh: 13%; StopGo reporter: -20%

How did Cc1nc(C(=O)N2CCC(C)(C(=O)NS(=O)(=O)C3CC3)C2)c(C)o1 (stereo not drawn) do in these assays?
RE007 growth inh: 13%; StopGo reporter: -10%

What do the screens show for `CCCS(=O)(=O)NC(=O)C1(C)CCCN(C(=O)c2nc3ccccc3s2)C1` (stereo not drawn)?
RE007 growth inh: 5%; StopGo reporter: 0%

Results for COc1ccc(C(=O)NN/C=C/C(=O)c2ccc(Br)cc2)cc1 ?
RE007 growth inh: -5%; StopGo reporter: -26%

What do the screens show for `c1cc2[nH]c3ccncc3c2cn1`?
RE007 growth inh: 2%; StopGo reporter: -18%

How did CCn1c2ccccc2nc2cc3c(cc21)c(Cl)c(=O)c1ccccc13 do in these assays?
RE007 growth inh: -18%; StopGo reporter: 0%

What do the screens show for `CC(C)n1c(=O)c2ccccc2n1S(C)(=O)=O`?
RE007 growth inh: 7%; StopGo reporter: -21%

Results for Cc1ccc(C)c(N(CC(=O)N2CCc3ccccc3C2)S(C)(=O)=O)c1 ?
RE007 growth inh: -6%; StopGo reporter: 2%

What do the screens show for `O=C(CC[C@H]1O[C@@H](n2cnc3c(NC(=O)c4ccccc4)ncnc32)[C@H](O)[C@@H]1O)NCC(F)(F)F`?
RE007 growth inh: -7%; StopGo reporter: -14%

What do the screens show for `O=C(Nc1ccc(OCCO)cc1)c1csc([C@@H]2C[C@H](O)[C@@H](CO)O2)n1`?
RE007 growth inh: 6%; StopGo reporter: -11%

Results for O=c1[nH]c(=S)[nH]c2c1[C@H](CCc1cccc(Cl)c1)O[C@H](C1CC1)C2 ?
RE007 growth inh: 2%; StopGo reporter: -26%

What do the screens show for `CC(C)CNC(=O)C1(C)CCCN1C(=O)c1cccnc1Oc1ccccc1` (stereo not drawn)?
RE007 growth inh: 2%; StopGo reporter: -10%

What do the screens show for `Nc1nc(=S)c2ncn([C@@H]3O[C@H](CO)[C@@H](O)[C@H]3O)c2[nH]1`?
RE007 growth inh: -7%[18.4 µM]; StopGo reporter: -30%

What do the screens show for `CCC(c1nnnn1-c1ccc2c(c1)OCCO2)N1CCN(Cc2c(F)cccc2Cl)CC1` (stereo not drawn)?
RE007 growth inh: -27%; StopGo reporter: -9%

What do the screens show for `O=C(O)C[C@H]1c2cc(C(F)(F)F)ccc2S(=O)(=O)N1C1CCN(Cc2ccccc2)CC1`?
RE007 growth inh: 7%; StopGo reporter: -11%

Results for CC(C)(C)OC(=O)NCc1ccc(CNC(=O)c2[nH]cnc2C(=O)Nc2ccccc2F)cc1 ?
RE007 growth inh: -14%; StopGo reporter: 20µM*

What do the screens show for `CCCCCCCCN1C(=O)[C@H](CC(=O)NCc2cccc3ccccc23)C[C@@]2(C(=O)OC)CCCCC=C12`?
RE007 growth inh: -10%; StopGo reporter: -20%

Results for CCCCC(=O)N(C)c1c(CC)nc2c(OCC3CCCCC3)cccn12 ?
RE007 growth inh: -3%[18.4 µM]; StopGo reporter: 0%

How did CC(=O)Nc1ccc(C(C)=NNC(=O)C2CCCC2)cc1 do in these assays?
RE007 growth inh: 4%; StopGo reporter: -8%

Results for Cc1ccnc(Nc2cccnc2)n1 ?
RE007 growth inh: -1%; StopGo reporter: 5%

Results for CN(C(=O)c1cccc(NC(=O)Cc2ccc(NC(=O)C3CCN(C(=O)C4CCCC4)CC3)cc2)c1)C1CCCCC1 ?
RE007 growth inh: -7%; StopGo reporter: inconclusive

Results for Cc1cccc(NC(=O)Nc2nnc([C@H]3C[C@H](O)[C@@H](CO)O3)s2)c1 ?
RE007 growth inh: -3%; StopGo reporter: 22%

How did COC(=O)c1ccccc1NC(=O)CCCOc1cc(=O)n(C)c2ccccc12 do in these assays?
RE007 growth inh: 3%; StopGo reporter: -24%

Results for CN(Cc1ccccc1)C(=O)CCN1C(=O)c2cccc([N+](=O)[O-])c2C1=O ?
RE007 growth inh: -1%; StopGo reporter: 0%

What do the screens show for `COc1ccc(-c2cnc3c(NC=O)cc(-c4cccc(NS(C)(=O)=O)c4)cn23)cc1OC`?
RE007 growth inh: -24%; StopGo reporter: -22%

What do the screens show for `Cc1cc(CNC[C@H]2O[C@@H](n3ccc(N)nc3=O)[C@H](O)[C@@H]2O)no1`?
RE007 growth inh: -20%; StopGo reporter: -11%

How did CC(=O)N1Cc2cc(C(=O)NCC(F)(F)F)nc(-c3cccc(-c4cccnc4)c3)c2[C@H]1CCO do in these assays?
RE007 growth inh: 8%; StopGo reporter: -21%

How did Cc1ccc(NC(=O)c2ncn(CCCN3CCN(Cc4cccc5ccccc45)CC3)n2)cc1C do in these assays?
RE007 growth inh: 8%; StopGo reporter: inconclusive

What do the screens show for `CCOC(=O)[C@]12CCC=C1N(Cc1ccc(Cl)cc1Cl)C(=O)[C@H](CC(=O)NCCCN1CCCC1=O)C2`?
RE007 growth inh: -4%; StopGo reporter: -24%

How did COc1ccc2c(c1)CSC(c1ccccc1)C2=O (stereo not drawn) do in these assays?
RE007 growth inh: -9%; StopGo reporter: 53%[activator]

How did CCOc1cccnc1Sc1ccccc1 do in these assays?
RE007 growth inh: -13%; StopGo reporter: 7%

What do the screens show for `CC(C)C[C@H]1CN(CCCC[C@H]2CNC(=O)C(=O)N2Cc2ccccc2)C(=O)C(=O)N1Cc1ccccc1`?
RE007 growth inh: 4%; StopGo reporter: -11%

How did CCCCN1CC(N(C)CCN(C)C)CS1(=O)=O (stereo not drawn) do in these assays?
RE007 growth inh: 2%; StopGo reporter: -7%

What do the screens show for `CCCc1c(C(=O)N/N=C(\C)c2cccnc2)nnn1-c1nonc1N`?
RE007 growth inh: 6%; StopGo reporter: 0%

What do the screens show for `CCOc1cc(OCC)cc(C(=O)N2CCC[C@H]2C(=O)N2CCC[C@H]2C(=O)N(C)Cc2ccccc2)c1`?
RE007 growth inh: 2%; StopGo reporter: -18%

In the list so far, these contain a CF3 group:
What do the screens show for `NC(=S)NN=Cc1nccc2c(C(F)(F)F)cccc12`?
RE007 growth inh: -9%; StopGo reporter: -11%

How did COc1cc(CNc2ncnc3c2ncn3[C@H]2CN(Cc3cccc(C(F)(F)F)c3)C[C@@H](COC(C)=O)O2)cc(OC)c1OC do in these assays?
RE007 growth inh: 1%; StopGo reporter: -20%

What do the screens show for `O=C(Nc1cccc(S(=O)(=O)C(F)(F)F)c1)[C@H]1C[C@H](O)[C@@H](CO)O1`?
RE007 growth inh: 8%[18.4 µM]; StopGo reporter: -5%

How did COc1cccc(CN2CCC2(C)C(=O)NCc2cccc(C(F)(F)F)c2)c1OC (stereo not drawn) do in these assays?
RE007 growth inh: -4%; StopGo reporter: -26%

What do the screens show for `O=C(CC[C@H]1O[C@@H](n2cnc3c(NC(=O)c4ccccc4)ncnc32)[C@H](O)[C@@H]1O)NCC(F)(F)F`?
RE007 growth inh: -7%; StopGo reporter: -14%

What do the screens show for `O=C(O)C[C@H]1c2cc(C(F)(F)F)ccc2S(=O)(=O)N1C1CCN(Cc2ccccc2)CC1`?
RE007 growth inh: 7%; StopGo reporter: -11%

How did CC(=O)N1Cc2cc(C(=O)NCC(F)(F)F)nc(-c3cccc(-c4cccnc4)c3)c2[C@H]1CCO do in these assays?
RE007 growth inh: 8%; StopGo reporter: -21%
